# Compound activity (PubChem)
# StopGo reporter: High Throughput Screening for Foot and Mouth Disease Virus Antivirals. human cells with a luciferase reporter of 2A StopGo recoding; control for the full effect not named in the record. Potency, µM (highest dose often 57.9 µM), inactives show at the highest dose signal change, negative = less light. 410,000 compounds, 1.2% hits. AID 1159524, 2015; active = well fitted falling curve with a large enough effect; inconclusive = small, poorly fitted or top-dose-only effect; inactive = no such curve, though single readings can be large or run the other way; tested in HEK293T cells; note: % is set by controls: 0 for no effect and ±100 for the full control effect; nearly all actives have a fitted effect of over 45% in size; luciferase light after 4 h
# RE007 growth inh: qHTS Assay for Inhibitors of the HIV-1 protein Vpr; Potency, µM (highest dose often 92.2 µM), for inactives: at the highest dose activity change, negative = less growth; S. pombe RE007 Vpr strain, BacTiter-Glo ATP luminescence, 24 h; control for the full effect not named in the record; 360,000 compounds, 0.21% hits; active = well fitted falling curve with a large enough effect; inconclusive = small, poorly fitted or top-dose-only effect; inactive = no such curve, though single readings can be large or run the other way;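 note: % is set by controls: 0 for no effect and ±100 for the full control effect; nearly all actives have a fitted effect of over 50% in size; the assay follows cell death caused by Vpr and the record does not say whether a fall means rescue or toxicity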
#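 Fission yeast RE007 carrying one integrated HIV-1 vpr copy, seeded at OD 0.01 in PMG+AL medium with 23 nL pinned compound. Grown 24 h at 30 degrees; viability read by BacTiter-Glo luminescence after 5 min.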
# MARV entry inh: qHTS for inhibitors of binding or entry into cells for Marburg Virus; Marburg virus pseudotyped entry inhibition, cell reporter; control for the full effect not named in the record; about a third of the inactives were read at about 46 µM; AID 540276, 2011; 300,000 compounds, 1.8% hits; Potency, µM (highest dose often 37.8 µM), for the others: top-dose activity change, negative = inhibition, most hits filed as inhibitors; active = well fitted inhibition curve with a large enough effect; inconclusive = small, poorly fitted or top-dose-only effect, or effect the other way; inactive = flat fitted curve, though single readings scatter; tested in HEK293 cells; about a fifth of its hits are not listed in these tables; note: % is set by controls: 0 for no effect and ±100 for the full control effect; luciferase read-out
# Lassa entry inh: qHTS for Inhibitors of binding or entry into cells for Lassa Virus | Lassa virus pseudotype entry inhibition, cell reporter; control for the full effect not named in the record | Potency, µM (doses to about 37.9 µM), for the others: at the top dose activity change, negative = inhibition, actives largely listed as inhibitors | 300,000 compounds, 1.2% hits | AID 540256, 2011; active means well fitted inhibition curve with a large enough effect; inconclusive means small, poorly fitted or top-dose-only effect, or effect the other way; inactive means flat fitted curve, though single readings scatter; tested in HEK293 cells; note: % is set by controls: 0 for no effect and ±100 for the full control effect; nearly all actives have a fitted effect of over 50% in size; luciferase read-out
# NS1 inh: qHTS Assay for Inhibitors of Influenza NS1 Protein Function | S. cerevisiae slowed by influenza A NS1, growth recovery by OD600 | 270,000 compounds, 0.4% hits | Potency, µM (highest dose often 46.1 µM), inactives show at the top dose activity, positive = more growth | AID 2326, 2010; note: actives are rising curves; nearly all actives have a fitted effect of over 50% in size
#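 Compounds were scored for reversing the slow growth caused by influenza A NS1 in S. cerevisiae, measured by optical density at 600 nm. Assay medium contained 2% galactose at pH 6.0; NS1-free yeast of the same strain were the positive control.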
# Cruzain inh Det: qHTS Assay for Promiscuous and Specific Inhibitors of Cruzain (with detergent); Cruzipain (Trypanosoma cruzi), P25779; purified cruzain, Z-FR-AMC fluorescence, 0.01% Triton; Potency, µM, without a hit: max response, negative = inhibition, actives largely listed as inhibitors; 200,000 compounds, 0.43% hits; AID 1478, 2009; active = well fitted curve in the direction sought with a large enough effect; inconclusive = small, poorly fitted or top-dose-only effect, or another doubt; inactive = no such curve, though single readings can be large; an effect the other way counts as inactive or inconclusive;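 note: plate controls were neutral wells for no effect and buffer without enzyme for full effect; nearly all actives have a fitted effect of over 40% in size; top concentration of the series not given in the record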
# Target sequence (P25779 123-467 limits assumed): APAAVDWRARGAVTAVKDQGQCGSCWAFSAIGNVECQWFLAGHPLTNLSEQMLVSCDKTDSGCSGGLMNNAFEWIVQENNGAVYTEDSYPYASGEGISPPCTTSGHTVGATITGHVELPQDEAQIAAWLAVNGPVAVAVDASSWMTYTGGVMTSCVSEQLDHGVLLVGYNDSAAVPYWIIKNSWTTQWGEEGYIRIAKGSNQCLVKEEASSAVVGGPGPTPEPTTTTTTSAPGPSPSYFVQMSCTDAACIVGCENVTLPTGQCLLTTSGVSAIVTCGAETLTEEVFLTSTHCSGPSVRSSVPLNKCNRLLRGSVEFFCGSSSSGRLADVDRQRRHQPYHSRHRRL
#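 Detergent-containing arm of a paired screen for aggregation-based inhibition: 0.01% Triton X-100 present. Cruzain at 1.5 nM cleaved 2 uM Z-FR-AMC at pH 5.5 with 5 mM DTT; AMC fluorescence gain over 60 s measured activity.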
# Cruzain noTriton: qHTS Assay for Promiscuous and Specific Inhibitors of Cruzain (without detergent); AID 1476, 2009; Cruzipain (Trypanosoma cruzi), P25779; Potency, µM, without a hit: max response, negative = inhibition, most hits filed as inhibitors; 200,000 compounds, 2.3% hits; purified cruzain, Z-FR-AMC fluorescence, no detergent; active = well fitted curve in the direction sought with a large enough effect; inconclusive = small, poorly fitted or top-dose-only effect, or another doubt; inactive = no such curve, though single readings can be large; an effect the other way counts as inactive or inconclusive;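 note: plate controls were enzyme without inhibitor for no effect and buffer without enzyme for full effect; nearly all actives have a fitted effect of over 40% in size; top concentration of the series not given in the record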
#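 Purified cruzain at 1.5 nM, pre-incubated 15 min with compound at room temperature in 100 mM sodium acetate pH 5.5, 5 mM DTT, 0.00005% Triton X-100. Reaction started with 2 uM Z-FR-AMC; AMC fluorescence increase over 60 s gives rate.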
# SARS PLpro yeast: qHTS of Yeast-based Assay for SARS-CoV PLP | 330,000 compounds, 0.19% hits | S. cerevisiae expressing SARS-CoV PLpro, growth rescue; control for the full effect not named in the record | Potency, µM (highest dose often 32.9 µM), inactives show at the top dose activity, positive = growth rescue; note: 0% is about no effect; nearly all actives have a fitted effect of over 55% in size; growth read by luminescence after 48 h
# Active calls of the source: *; ? = inconclusive; / = no result given; & = joins results of further samples; [ ] = dose if it differs, or a comment. Unless noted, calls come from the whole dose curve; as a rule, active means well fitted rising curve with a large enough effect; inconclusive means small, poorly fitted or top-dose-only effect; inactive means no such curve, though single readings can be large or run the other way. Potency is the fitted concentration of half-maximal effect.
SMILES,StopGo reporter,RE007 growth inh,MARV entry inh,Lassa entry inh,NS1 inh,Cruzain inh Det,Cruzain noTriton,SARS PLpro yeast
COc1ccc(-c2ccc([C@H]3[C@H]4C=CC[C@@H](C)[C@@H]4C(=O)N3Cc3ccccc3)c(F)c2)cc1C,?,-7.9%,/,/,?,/,/,-3.6%
CC(C)Cc1nn2c(=O)cc(COC(=O)c3ccccc3NC(=O)c3cccs3)nc2s1,-19.5%,/,/,-3.3%[46.1 µM],/,0.4%,-3.0%,/
COc1ccc(OCCOC(=O)c2cc(S(=O)(=O)N3CCOCC3)c(Cl)cc2Cl)cc1,39.8µM*,3.3%,-22.2%,6.6%,/,/,/,-11.0%
CCc1cc(=O)oc2cc(C)c(CN3CCCCC3)c(O)c12,0.0%,-1.1%,22.9%&22.9%,5.5%,16.4%,-11.3%,-7.5%,5.6%
CCC(=O)Nc1ccc2c(c1)C(=O)N(C1CCCCC1)C2=O,5.5%,-8.2%,13.9%,-10.8%,-70.7%,0.7%,?,-40.2%
CC(C)OC(=O)C1C(=O)CC(C)(O)C(C(=O)OC(C)C)C1c1ccccc1 (stereo not given),-2.7%,1.3%,5.5%[46.1 µM],-18.4%[46.1 µM],/,/,/,4.5%
CC1=NN(C(=O)Cc2ccc(C)cc2)C(O)(c2cccnc2)C1 (stereo not given),-6.9%,-0.7%,-21.5%,-2.8%,-0.1%,4.2%,-4.7%,-2.5%
CCCCC(=O)NS(=O)(=O)c1ccc(N=NN(CC)CC)cc1,0.0%,50.4%,5.4%,?,-5.5%,/,/,0.4%
O=C1CCSC2(C(=O)N(Cc3ccc(F)cc3)c3ccccc32)N1c1ccc(Cl)cc1 (stereo not given),0.0%,/,/,3.6%[46.1 µM],/,-7.9%,-19.7%,/
CC(=O)c1nn(-c2cccc(Br)c2)cc1C(=O)c1ccc(C)cc1,7.7%,-14.0%[3.69 µM],-29.8%,?,-6.6%,-4.2%,-0.1%,3.9%
CC1(c2cc([N+](=O)[O-])cc([N+](=O)[O-])c2)CC(C)(C)N(C(=O)c2ccccc2)c2ccccc21 (stereo not given),-23.7%,3.6%,?,-4.2%,14.8%,4.6%,10µM*,-29.1%
COc1ccc(Cn2c(=O)c3oc4ccccc4c3n(CC(=O)Nc3ccc(F)cc3F)c2=O)cc1,-11.3%,/,/,-1.0%[46.1 µM],/,-0.5%,-2.2%,/
O=c1n(Cc2ccc(Cl)cc2)c2ccccc2c2nc(-c3ccccc3)nn12,-12.0%,/,3.3%[46.1 µM],17.6%[46.1 µM],/,-1.0%,-2.4%,/
N#CC(C#N)=Cc1ccc([N+](=O)[O-])c(O)c1,-5.5%[146 µM],/,?,/,0.4%,-9.2%&-6.7%,-5.5%&-20.5%,/
Cc1ccc(S(=O)(=O)N2CCCN(Cc3nc4ccccc4c(=O)[nH]3)CC2)cc1,0.0%,5.1%,-1.5%,17.4%,/,/,/,2.3%
Cn1nc(C(=O)NC2CCCc3ccccc32)ccc1=O (stereo not given),3.6%,-2.1%,?,3.7%[46.1 µM],/,/,/,-4.2%
CCOc1ccc(C(C(=O)Nc2ccc(F)cc2)N(C(=O)Cn2nnc3ccccc32)C2CC2)cc1 (stereo not given),/,0.9%,-16.8%,-13.6%,?,1.2%,-2.3%,5.8%
O=[n+]1cc(-c2cccc3ccccc23)n([O-])c2c1CCC2,-10.8%,9.0%,12.1%,-1.1%,10.8%,-0.7%,2.9%,-2.8%
CNC(=O)c1cc(NC(=O)CCn2nc(-c3ccccc3)c3ccccc3c2=O)ccc1OC,-26.4%,3.2%,?,4.8%,-1.3%,/,/,2.0%
NNC(=O)c1sccc1OCc1cccc(C(F)(F)F)c1,-14.6%,-3.0%,?,-2.8%[46.1 µM],/,/,/,-14.1%
O=C(CN1C(=O)NC2(CCOc3ccccc32)C1=O)c1cccs1 (stereo not given),1.4%,0.5%,-1.0%[46.1 µM],17.0%[46.1 µM],/,/,/,2.1%
CCOC(=O)c1ccc(NC(=O)CNC(=O)c2ccco2)cc1,17.0%,-17.2%,3.6%,12.9%,-5.9%,/,/,-1.2%
O=C(CN1CC(c2ccccc2)CC1=O)OCc1cccc(Br)c1 (stereo not given),18.0%,20.2%,-8.5%,1.6%,-13.2%,-0.8%,3.4%,1.8%
CCOc1cc(/C=C\[N+](=O)[O-])ccc1OCC(=O)Nc1ccccc1C,25.1µM*,/,0.3%,/,-121.3%,1.8%,-9.7%,-19.1%
Cn1nnnc1SCC(=O)N1CCOCC1,1.1%,10.2%,-2.4%,-10.2%,4.7%,0.2%,10.6%,-0.6%
COc1cc(-c2nc(Cn3nnc(C(=O)Nc4ccccc4C)c3C)c(C)o2)cc(OC)c1OC,?,/,?,-9.5%[46.1 µM],/,-3.4%,?,/
CCC(CC)c1nn2c(N)c(/C=C3\C=Nc4ccccc43)c(=O)nc2s1,-10.4%,18.4%,-15.5%[46.1 µM],-10.1%,-2.8%,/,/,-0.2%
N/C(=N\OC(=O)Cc1ccc([N+](=O)[O-])cc1)c1ccc([N+](=O)[O-])cc1,-18.7%,-17.3%,1.0%[46.1 µM],12.5%[46.1 µM],5.1%,/,/,1.2%
COc1ccc(CCNC(=O)COc2ccc(-c3ccccc3)cc2)cc1OC,-17.0%,18.1%,-26.0%,11.1%,-11.5%,-9.5%,21.3%,-14.1%
O=C(C1CCCCC1)N1CCC(O)(c2ccc(Cl)cc2)CC1,-18.7%,-0.8%,5.1%,9.4%,-2.8%,/,/,-2.0%
CN(/N=C/C=C/c1ccccc1)C1=NS(=O)(=O)c2ccccc21,-23.9%,-15.1%,0.2%,-4.1%,3.9%,-4.3%,?,?
O=C(c1ccco1)N(Cc1cccc(Br)c1)C1CCS(=O)(=O)C1 (stereo not given),-4.6%,5.7%,-7.5%[46.1 µM],-1.3%[46.1 µM],3.1%,/,/,0.7%
CN(C)c1ccc(C(=O)OCC(=O)Nc2ccc(N3CCOCC3)cc2)cc1,1.6%,-2.2%,/,/,2.7%,/,/,1.0%
COc1ccc(C(=O)N2CCCC(O)C2)cc1OC1CCN(C(C)C)CC1 (stereo not given),-4.3%,2.3%,20.6%,2.0%,7.1%,/,/,-6.2%
O=C(CN1CCN(c2ccccc2F)CC1)c1ccc(O)c(O)c1,-4.1%,-9.6%,?,?,-0.4%,/,/,1.7%
COc1ccc(N=N/C(=C\O)C(=O)c2ccco2)cc1,27.1%,48.0%,1.4%[46.1 µM],?,/,/,/,-6.0%
CC1CCN(c2oc(-c3ccccc3Cl)nc2C#N)CC1,-8.9%,-12.1%,0.0%,-13.2%,-9.9%,-16.3%,8.2%,-10.2%
COCCn1c(N)c(C(=O)NS(=O)(=O)c2ccc(C)cc2)c(=O)[nH]c1=O,-13.1%,-21.2%,13.2%[46.1 µM],11.8%,/,/,/,0.9%
COc1ccc(S(=O)(=O)N(CC(=O)NC2CC3CCC2C3)c2ccccc2OC)cc1 (stereo not given),?,-23.3%,6.7%[46.1 µM],?,-3.5%,/,/,-2.5%
COC(=O)[C@@]1(Cc2ccc(OC)cc2)[C@H]2c3cc(C(=O)N4CCCC4)n(CCN4CCNC4=O)c3C[C@H]2CN1C(=O)c1ccccc1,/,/,-1.7%,29.7%,-1.8%,1.8%,?,6.2%

# Of the compounds above, these have a cyano group:
SMILES,StopGo reporter,RE007 growth inh,MARV entry inh,Lassa entry inh,NS1 inh,Cruzain inh Det,Cruzain noTriton,SARS PLpro yeast
N#CC(C#N)=Cc1ccc([N+](=O)[O-])c(O)c1,-5.5%[146 µM],/,?,/,0.4%,-9.2%&-6.7%,-5.5%&-20.5%,/
CC1CCN(c2oc(-c3ccccc3Cl)nc2C#N)CC1,-8.9%,-12.1%,0.0%,-13.2%,-9.9%,-16.3%,8.2%,-10.2%

# Further entries.
SMILES,StopGo reporter,RE007 growth inh,MARV entry inh,Lassa entry inh,NS1 inh,Cruzain inh Det,Cruzain noTriton,SARS PLpro yeast
O=C(NCc1cccc(Cl)c1)c1ccc2nc(N3CCCCC3)sc2c1,38.1%[activator],/,2.4%[46.1 µM],-4.1%[46.1 µM],/,-2.3%,24.8%,/
CC(C)NC(=O)CSc1nc2ccccc2n1CC(=O)N1CCc2ccccc21,11.3%,-5.1%,2.2%,-10.2%,-20.9%,0.8%,9.1%,4.2%
NNC(=O)COc1ccc(-c2nccc(-c3ccc(F)cc3)n2)cc1,-30.0%,1.9%,/,/,?,/,/,-2.1%
COc1cc2cc(C(=O)N3CCN(Cc4ccc5c(c4)OCO5)CC3)c(=O)oc2cc1OC,-8.8%,-9.4%,?,9.0%,-3.4%,/,/,1.2%
C=CCNC(=O)CN(c1ccc(OC)cc1OC)S(C)(=O)=O,5.0%,5.8%,3.6%,3.4%,1.3%,9.8%,-1.2%,-5.4%
C=CCOc1cccc(C(=O)N2CCCC(CNS(=O)(=O)c3cccs3)C2)c1 (stereo not given),-4.3%,0.1%,/,/,-1.6%,/,/,-1.0%
CSc1ccc(C(=O)C2CCCN(C(=O)c3cc4cc(F)ccc4[nH]3)C2)cc1 (stereo not given),-7.8%,-12.3%,2.8%,14.7%[46.1 µM],0.6%,/,/,-0.1%
Cc1cc(C)c2c(c1)-c1cc(C)nn1C(c1cccnc1)N2 (stereo not given),-18.8%,-7.5%,/,/,-2.5%,/,/,1.0%
COc1ccc(-c2cn3c(n2)sc2cc(C(=O)NCc4cccc(F)c4)ccc23)cc1,9.9%,/,/,18.3%[46.1 µM],/,-0.7%,-0.9%,/
